High-throughput results (PubChem BioAssay)
FAK inh – inhibitors of human focal adhesion kinase; Q05397; biochemical FAK kinase activity assay; inhibition, %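 (tested at 7 µM)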; 97,000 tested, 0.84% active; AID 727; in the data active = inhibition above about 19%;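 also: 0% = DMSO and 100% = reference compound high control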
TNFa cytotox – toxic to HUVEC cells under TNF alpha stimulation; AID 848; cell count reduction, % at 2 µM; HUVEC TNFalpha-stimulated, Hoechst cell count, imaging; 93,000 tested, 0.17% active;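 active = cell count reduction exceeding the screen mean by over 5 SD, scaled to untreated wells per plate, cut at about 78% in these data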;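 also: cells counted after 24 h of TNF alpha exposure following the 1 h pretreatment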
PTPN22 act – LYP (human) phosphatase activation; Q9Y2R2; 96,000 tested, 0.11% active; activation, % at 2 µM; recombinant LYP, DiFMUP fluorescence; 0 = plate median, 100 = signal doubled; AID 697;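 active = activation at 2 µM above a set limit, the mean plus 5 SD, cut at about 37% in these data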
Target sequence (Q9Y2R2 whole entry, looked up): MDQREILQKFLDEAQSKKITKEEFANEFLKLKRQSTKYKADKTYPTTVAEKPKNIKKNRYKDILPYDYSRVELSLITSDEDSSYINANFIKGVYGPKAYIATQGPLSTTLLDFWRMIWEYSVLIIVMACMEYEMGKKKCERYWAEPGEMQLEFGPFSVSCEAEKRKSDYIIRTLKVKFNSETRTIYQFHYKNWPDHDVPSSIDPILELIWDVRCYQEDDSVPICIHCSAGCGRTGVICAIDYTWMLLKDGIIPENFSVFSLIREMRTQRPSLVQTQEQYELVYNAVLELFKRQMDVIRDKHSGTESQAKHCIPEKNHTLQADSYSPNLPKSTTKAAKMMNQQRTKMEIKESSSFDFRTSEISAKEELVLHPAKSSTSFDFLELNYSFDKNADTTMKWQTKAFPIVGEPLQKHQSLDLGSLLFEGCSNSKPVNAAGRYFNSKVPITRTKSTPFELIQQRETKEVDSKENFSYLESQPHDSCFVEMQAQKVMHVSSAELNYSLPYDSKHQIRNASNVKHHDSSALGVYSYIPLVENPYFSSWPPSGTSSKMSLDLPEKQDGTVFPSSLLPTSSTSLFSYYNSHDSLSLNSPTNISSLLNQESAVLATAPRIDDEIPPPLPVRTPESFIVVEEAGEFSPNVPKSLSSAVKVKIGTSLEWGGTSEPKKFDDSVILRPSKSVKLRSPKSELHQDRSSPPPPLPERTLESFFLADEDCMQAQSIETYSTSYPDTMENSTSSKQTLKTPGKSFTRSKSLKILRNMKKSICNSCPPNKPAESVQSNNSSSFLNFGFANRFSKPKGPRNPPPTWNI
Pyk2 oligo antag – blocks oligomerization of human Pyk2 in cells. Q14289. z-score (the deposit names both 25 µM and 10 µM). Q293 cells, Pyk2 FERM NanoBiT luminescence; stronger effect = lower value. 99,000 tested, 0.83% active;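 active = Z-score of -3 or lower, scaled per plate to the spread of control and sample wells; inactive = z-score above -3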;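 also: negative z-score means lost luminescence so less FERM oligomerization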
PTPN22 inh 2 – inhibitors of human LYP (PTPN22) phosphatase | AID 640 | 96,000 tested, 0.21% active | inhibition, % at 2 µM | Q9Y2R2 | recombinant LYP catalytic domain, DiFMUP fluorescence;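 active = inhibition at 2 µM at or above a set limit, the screen mean plus 3 SD, cut at about 24% in these data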;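 also: 0% = DMSO with enzyme and 100% = enzyme fully blocked by orthovanadate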
The depositor's hits bear a star; / = no result given. This is a subset; rates above refer to the full screens.

1: COc1ccc(/C(N)=N/OC(=O)CSc2ccccc2)cc1
2: OCCCN=c1cc(-c2ccccc2)oc2ccc(Cl)cc12
3: O=C(O)Cn1nc(C(F)(F)F)c2c1CCCCC2
4: CC(C)CN=c1cc(-c2ccccc2)oc2ccc(Cl)cc12
5: O=C(COc1ccc(Cl)cc1Cl)Nc1noc2ccccc12
6: O=C(O)COCCN1CCN(C(c2ccccc2)c2ccc(Cl)cc2)CC1 (configuration not stated)
7: Cc1ccnc2c1NC(=O)c1cccnc1N2C1CC1
8: NC(=O)N1c2ccccc2CC(=O)c2ccccc21
9: Cc1ccnc(NS(=O)(=O)c2ccc(N)cc2)n1
10: COc1cc(S(=O)(=O)n2c(C)nc3ccccc32)ccc1F
Screen / compound no. | 1 | 2 | 3 | 4 | 5 | 6 | 7 | 8 | 9 | 10
FAK inh | 1 | -1 | -3 | 10 | 2 | -1 | -5 | 1 | -1 | 0
TNFa cytotox | -46 | -12 | -33 | -4 | -24 | -6 | 0 | -1 | -8 | -8
PTPN22 act | -6 | -10 | 1 | -1 | 6 | 2 | 6 | 15 | 31 | -4
Pyk2 oligo antag | -0.2 | 0.13 | 1.2 | -0.47 | 1.1 | 0.39 | / | / | / | 1
PTPN22 inh 2 | 7 | 8 | -4 | 2 | -9 | -1 | -9 | -15 | -27 | 1

Just PTPN22 inh 2, FAK inh and Pyk2 oligo antag, for 5 of the compounds above:
no. | compound | PTPN22 inh 2 | FAK inh | Pyk2 oligo antag
5 | O=C(COc1ccc(Cl)cc1Cl)Nc1noc2ccccc12 | -9 | 2 | 1.1
6 | O=C(O)COCCN1CCN(C(c2ccccc2)c2ccc(Cl)cc2)CC1 (configuration not stated) | -1 | -1 | 0.39
7 | Cc1ccnc2c1NC(=O)c1cccnc1N2C1CC1 | -9 | -5 | /
8 | NC(=O)N1c2ccccc2CC(=O)c2ccccc21 | -15 | 1 | /
9 | Cc1ccnc(NS(=O)(=O)c2ccc(N)cc2)n1 | -27 | -1 | /

Reprinted at random: 2 records from the list.
3: O=C(O)Cn1nc(C(F)(F)F)c2c1CCCCC2
9: Cc1ccnc(NS(=O)(=O)c2ccc(N)cc2)n1
Screen / compound no. | 3 | 9
FAK inh | -3 | -1
TNFa cytotox | -33 | -8
PTPN22 act | 1 | 31
Pyk2 oligo antag | 1.2 | /
PTPN22 inh 2 | -4 | -27
